Bioassay records deposited in PubChem by Center for Chemical Genomics, University of Michigan.
CDC25B CDK2 inh – human CDC25B-CDK2/CyclinA binding inhibition; hit rate 0.72% among 94,000; HTRF CDC25B-CDK2/CyclinA binding, anti-His/anti-Flag; hits give high values; z-score (test concentration not listed);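 note: score is relative to mean and SD of negative controls; strong numbers were not always called active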
HIV TAR-Tat – HIV-1 TAR-Tat binding disruption | hit rate 0.6% among 100,000 | z-score (concentration not given with the values) | HIV-1 TAR RNA, Tat peptide displacement FRET; hits give high values | AID 1259389;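 note: score is relative to mean and SD of negative controls; some compounds called inactive have numbers as strong as hits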
* marks the source's active call; other numbers are inactive results; · = no result given; & = joins results of further samples.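 Rule for the calls: active = z-score from 3 up in half or more of its runs; inactive = the rest.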

entry	smiles	CDC25B CDK2 inh	HIV TAR-Tat
1	CN(c1ccc(F)cc1)S(=O)(=O)N1CCCC(C(=O)NCCC2=CCCCC2)C1 (centres undefined)	·	1.2
2	COc1ccc(-c2nc3scc(CCNS(=O)(=O)c4ccc(F)cc4)n3n2)cc1OC	·	1.57
3	FC(F)(F)c1cc(C#CCN2CCCC2)cc(C(F)(F)F)c1	0.28	·
4	COc1cc(S(=O)(=O)NCCN2CCCCC2)ccc1-n1cnnn1	0.85	-0.23
5	Cn1c(=O)c2c(SCC(=O)N3CCCc4ccccc43)nc(-c3cccc(F)c3)nc2n(C)c1=O	·	0.92
6	CSc1ccc(C2CC(=O)N3CN(c4ccccc4F)CSC3=C2C#N)cc1 (centres undefined)	0.14	2.34
7	CCOC(=O)c1c(C)oc2nc(C)nc(N3CCN(C(=O)OCC)CC3)c12	·	1.85
8	O=C(Nc1ccccc1F)C1=Cc2sc3c(c2CS1)CCCC3	·	-1.77
9	O=C(C1=C(O)C(=O)N(CCCn2ccnc2)C1c1cccnc1)c1cc2ccccc2o1 (centres undefined)	0.78	1.76
10	N#CCCN(Cc1cccs1)C(=O)c1nccnc1C(=O)O	-1.94	·
11	Cc1ccc2c(c1)cc1c(=O)n(CC(=O)O)nc(C)n12	-0.12	-0.3
12	NC(=O)c1cccc2cccc(Br)c12	0.27	·
13	CC(=O)N1c2ccc(S(=O)(=O)N3CCOCC3)cc2CC1C (centres undefined)	·	1.32
14	COc1ccc(C2c3c(oc4ccccc4c3=O)C(=O)N2c2nc(C)c(C)s2)cc1OC (centres undefined)	-1.04	1.15
15	Cn1c(=O)c(N2CCCC(C(=O)O)C2)nc2ccccc21 (centres undefined)	0.37	-0.9
16	COc1cccc2cc(C(=O)CC3(O)C(=O)Nc4ccc(C)cc43)oc12 (centres undefined)	·	2.06
17	Cc1cccn2c(=O)c(C(=O)NCc3ccc4c(c3)OCO4)cnc12	·	1.46
18	CC1(C)CC(=O)C2=C(C1)N=C1c3ccccc3C(=O)C1C2c1ccc(F)cc1 (centres undefined)	-10.7	-2.95
19	O=C(c1ccncc1)N(c1cc2sc(=O)oc2c2ccccc12)S(=O)(=O)c1cccs1	2.58	0.71
20	COc1cc(OC)c(NS(=O)(=O)c2ccc3c(c2)NC(=O)CCS3)cc1Cl	·	1.37
21	Cc1cc2c(cc1NS(=O)(=O)c1cccs1)n(C)c(=O)n2C	·	0.66
22	COC(=O)C1(C(F)(F)F)N=C(N2CCCCC2)Oc2c1c(C)nn2-c1ccccc1 (centres undefined)	-0.29	-0.11
23	Cc1nn(CCCC(=O)NCCCN2CCCC2=O)c(=O)c2cc3sccc3n12	-1.56	1.39
24	Cc1ccccc1-c1nn2c(Cn3cnc4ccccc43)nnc2s1	-1.05	1.11
25	Cc1cc2c3c([nH]c2cc1S(=O)(=O)N1CCN(C(=O)c2ccco2)CC1)CC(C)(C)CC3=O	·	0.69
26	CC1CN(S(=O)(=O)c2ccc3c(c2)NC(=O)CC(=O)N3)c2ccccc2S1 (centres undefined)	·	1.44
27	CC1CCCCN1S(=O)(=O)c1ccc2c(c1)c(=O)n(CC(=O)N1CCCC1)c(=O)n2C (centres undefined)	·	1.73
28	CN1C(=O)C(C)(C)c2cc(S(=O)(=O)N(C)CC(=O)NCc3cccs3)ccc21	·	0.99
29	Cc1ccc(C(O)c2cccnc2)o1 (centres undefined)	-1.61	0.99
30	COc1cc(OC)c(NC(=O)NC(c2ccccc2)c2nnc(-c3ccccc3)o2)cc1Cl (centres undefined)	·	2.07
31	CCCn1c(=O)c2ccc(C(=O)NC(C)CC)cc2n2c(=O)[nH]nc12 (centres undefined)	-2.06	0.87
32	Clc1cc2c(cc1Cl)Nc1cc(Cl)c(Cl)cc1N2	-3.02	·
33	COc1ccc(C2Nc3ccccc3NC3=C2C(=O)CC(C)(C)C3)cc1Cn1cc([N+](=O)[O-])cn1 (centres undefined)	-1.47	-0.04
34	O=C(O)CCSc1ncnc2c1sc1cccc(F)c12	-0.58	5.38*
35	CCC1CCCCN1C(=O)CCc1c(C)nc2nc(NCc3cccs3)[nH]n2c1=O (centres undefined)	-1	0.51
36	O=C(Nc1cccc(Br)c1)N1Cc2cccn2-c2ccccc21	·	0.33
37	CCC(OC(=O)c1cn(CC)c2nc(C)ccc2c1=O)C(=O)Nc1sc2c(c1C(N)=O)CCCC2 (centres undefined)	0.42	0.78
38	CC1CC(C)CN(C(=O)c2cc3c(s2)-c2ccccc2SC3)C1 (centres undefined)	-2.15	-0.13
39	O=C(Nc1sc2c(c1C(=O)Nc1ccccc1)CCCC2)c1ccco1	-0.93	1.08
40	c1ccc2c(c1)c1ccccc1n2CC1CS1 (centres undefined)	-1.47	·
41	O=P(NNc1ccccc1)(NNc1ccccc1)c1ccccc1	-1.41	·
42	C=CCOc1ccc(C2C(C(=O)OC)=C(C)NC3=C2C(=O)c2ccccc23)cc1Cl (centres undefined)	-1.45	-1.29
43	Cc1ccc(S(=O)(=O)c2cnc3ccc(F)cc3c2N2CCCC2)cc1C	-0.51	-0.69
44	CSc1sc(-c2ccon2)c(-c2ccco2)c1C#N	1.31	·
45	COc1ccc(-c2cc(-c3ccc(C)cc3)[nH]c(=O)c2C#N)cc1	-2.1	·
46	CCOc1cc(-c2ccc(OC(=O)c3ccccc3C)cc2)cc(=O)c2c(C)oc(C)c12	-2.14	1.22
47	Cc1ccc(-n2c(C)c(C)c3c2ncn2nc(-c4ccco4)nc32)cc1C	-0.41	1.96
48	Cc1cc(=O)oc2cc(NC(=O)C(=O)Nc3ccc4nc5n(c(=O)c4c3)CCCCC5)ccc12	-0.89	·
49	COc1ccc(NC(=O)CSc2nnc3[nH]c(=O)cc(N)n23)cc1	-0.96&-0.88	-0.4
50	c1ccc(-c2ccc(-c3nc(-c4ccccn4)no3)cc2)cc1	0.75	0.29
51	O=C(Nc1cccc(F)c1)c1cnc2sc(N3CCOCC3)nn2c1=O	·	1.03
52	CCn1ccc2cc(OC)ccc2c1=S	-1.53	2.47
53	Cc1cc(C(=O)Sc2cccc(C(F)(F)F)c2)nn1C(C)(C)C	2.55	·
54	O=C(OCc1cc(=O)n2ccsc2n1)c1ccccc1	·	1.11
55	CCC(=O)N1c2ccc(S(=O)(=O)NCCC(C)C)cc2CC1C (centres undefined)	·	0.35
56	Cc1cccc(-n2nnc(-c3nc(-c4ccncc4)no3)c2N)c1C	·	-0.49
57	Cc1noc(C)c1C(=O)Nc1nnc(CC2CCCC2)s1	0.58	1.19
58	COC(=O)c1c(N)c(C#N)c2n1CCCC2	-0.96	1.5
59	CCSc1nc2ccccc2nc1SCC	-1.23	·
60	Nc1nc(-c2ccc(F)cc2)cc(C(F)(F)F)n1	-0.24	·

Copied from above, entries 50 to 56
entry	smiles	CDC25B CDK2 inh	HIV TAR-Tat
50	c1ccc(-c2ccc(-c3nc(-c4ccccn4)no3)cc2)cc1	0.75	0.29
51	O=C(Nc1cccc(F)c1)c1cnc2sc(N3CCOCC3)nn2c1=O	·	1.03
52	CCn1ccc2cc(OC)ccc2c1=S	-1.53	2.47
53	Cc1cc(C(=O)Sc2cccc(C(F)(F)F)c2)nn1C(C)(C)C	2.55	·
54	O=C(OCc1cc(=O)n2ccsc2n1)c1ccccc1	·	1.11
55	CCC(=O)N1c2ccc(S(=O)(=O)NCCC(C)C)cc2CC1C (centres undefined)	·	0.35
56	Cc1cccc(-n2nnc(-c3nc(-c4ccncc4)no3)c2N)c1C	·	-0.49

The list continues:
entry	smiles	CDC25B CDK2 inh	HIV TAR-Tat
61	Cc1cc(C)cc(NC(=O)CN(C)S(=O)(=O)c2ccc3c(c2)CC(C)N3C(=O)C2CCC2)c1 (centres undefined)	·	-0.26
62	CN(C)c1ccc(/C=C(\C#N)S(C)(=O)=O)c(Cl)c1	0.47	·
63	O=C1NC(c2ccco2)Nc2sc3c(c21)CCN(Cc1ccccc1)C3 (centres undefined)	0.63	-4.52
64	O=C(c1cccs1)N1CCN(CCc2ccccn2)CC1	-1.89	2.16
65	Cc1ccc(S(=O)(=O)NC(=O)NCc2nc(-c3ccc(C(F)(F)F)cc3)no2)cc1	-1.36	·
66	O=c1cc(CSc2nc(NCc3ccc(Cl)cc3)c3ccccc3n2)nc2ccc(Cl)cn12	·	0.83
67	CCN(CC)CCCN1C(=O)c2cc3occc3n2CC1(C)C(=O)NC1CCC(C)CC1 (centres undefined)	·	0.57
68	Cc1cccc(C)c1NS(=O)(=O)c1ccc(-c2cnc(C3CC3)o2)cc1	·	0.15
69	COc1ccc(NC(=O)CSc2nc(N)c3c4c(sc3n2)CSC(C)(C)C4)cc1	0	1.16
70	CC(=O)N1N=C(c2ccc3ccccc3c2)OC1c1ccc(Oc2ccc([N+](=O)[O-])cn2)cc1 (centres undefined)	·	1.27
71	O=C(NCc1cccs1)C1CCCN(c2nnc(N3CCCC3=O)s2)C1 (centres undefined)	-2.8	2.07
72	O=C(Nc1ccc(C2SCCS2)cc1)c1ccc(Cl)cc1Cl	-2.83	·
73	COc1ccc(-c2ccc(NS(=O)(=O)c3ccc(OC)c(OC)c3)cc2)nn1	·	0.93
74	O=S(=O)(c1ccc(-c2noc(-c3cc4ccccc4[nH]3)n2)cc1)N1CCOCC1	·	1.91
75	CCc1cccc(NS(=O)(=O)c2ccc3c4c2CC(=O)N4CC(C)S3)c1 (centres undefined)	·	0.95
76	COc1cc(NC(=O)Cn2c(=O)oc3cc(Cl)ccc32)cc(OC)c1	·	-1.58
77	Cc1cc(C)cc(NC(=O)CN2C(=O)N(c3cc(C)cc(C)c3)C3CS(=O)(=O)CC32)c1 (centres undefined)	·	0.23
78	Cc1ccc(-c2nc3ncccn3c2Nc2ccc3c(c2)OCO3)o1	-2.65	·
79	CCN1C(=O)C(=Cc2ccc(N(C)C)cc2)C(=O)N(CC)C1=S	-1.77	·
80	N#Cc1n[nH]nc1-c1ccc(OC(=O)c2ccc(Cl)cc2)cc1	-1.14	·
81	Cn1c(=O)n(C/C=C/c2ccccc2)c(=O)c2c1nc1n2CCN1c1ccccc1	·	2.16
82	COc1ccc(-c2noc(N3CCN(c4ccccc4OC)CC3)n2)cc1OC	·	0.02
83	O=C1CCC(=O)N1c1ccc(-c2nc3scc(-c4cccs4)c3c(=O)o2)cc1	-5.63	-0.28
84	Cc1cccc(OCc2nnc3sc(-c4ccncc4)nn23)c1	-0.44	2.16
85	COc1cccc2c1OCC(C(=O)NC1CCCC1)=C2	·	0.41
86	Cn1c(=O)c2c(nc(Sc3ccc(NS(=O)(=O)c4ccc(Cl)cc4)cc3)n2C)n(C)c1=O	-0.74	0.52
87	CC1(C)CC(=O)C2=C(C1)Nc1ncnn1C2c1cccnc1 (centres undefined)	0.82	0.05
88	COc1ccc(-c2csc(Nc3ccccc3)[n+]2C)cc1	-1.53	2.31
89	O=c1c(NCc2cccs2)c(-c2ccc(Cl)cc2)c1=O	·	0.65
90	CCN(CC)c1ccc([N+](=O)[O-])c(N(CC)CC)n1	-1.42	·
91	CCOC(=O)c1c(NC(=O)C2(C)Cc3ccccc3C(=O)O2)sc2c1CCC(C)C2 (centres undefined)	-2.14	1.21
92	COC(=O)c1snc(-c2c(Cl)cccc2Cl)c1C(=O)OC	-0.88	·
93	Nc1c(-c2nc(-c3ccccc3Cl)no2)nnn1-c1ccc(F)cc1	·	0.77
94	Cc1cc(NC(=O)CSc2nc3cc4c(cc3c(=O)n2Cc2ccco2)OCO4)no1	-5.77	·
95	CCc1ccnc(NC(=O)NS(=O)(=O)c2ccc(C)cc2)c1	-1.09	·
96	O=C(Nc1ccncc1)c1cc2nc(-c3cccs3)cc(C(F)(F)F)n2n1	-2.07	·
97	COc1ccc(/C=C2\N=C(SC)SC2=O)cc1Br	0.24	-0.26
98	COc1ccc(OCc2nn3c(-c4ccncc4)nnc3s2)cc1	0.88	-0.1
99	CCOC(=O)N1CCC(NC(=O)CCc2c(C)nc3c(c2C)c(=O)n(C)c(=O)n3C)CC1	-0.79	0.85
100	O=c1c2nccnc2nc(SCc2ccccc2F)n1Cc1ccccc1	-1.03	1.82
101	Cc1ccc(C2CC(c3ccc(OCc4ccccc4)cc3)n3nc(N)nc3N2)cc1 (centres undefined)	0.61	1
102	Cc1cc(N)c(-n2cc3c(c2-c2ccccc2Cl)c(=O)n(C)c(=O)n3C)cc1C	-1.59	-1.76
103	O=C(c1cc(-c2ccco2)on1)N1CCN(c2ccc(F)cc2)CC1	-2.4	-1.09
104	Cc1cn(S(=O)(=O)c2cc(C)c(Cl)cc2C)cn1	-0.88	0.84
105	Cc1nc2cc(-c3ccccc3)nn2c(C)c1Sc1nccc(-c2cccnc2)n1	-0.47	·
106	O=C1C(Cc2ccc(O)cc2)NC(=S)N1c1ccccc1 (centres undefined)	-1.4	·
107	COc1ccc2oc(=O)c3c(c2c1)CC(C(F)(F)F)S3 (centres undefined)	-2.09	·
108	O=C(c1cnc(N2CCN(c3ncccn3)CC2)c2ccccc12)N1CCN(c2ncccn2)CC1	0.23	·
109	Cc1ccc(N(CC(=O)NC(C(C)C)C(C)C)S(C)(=O)=O)cc1Cl	-1.52	·
110	COC(=O)c1c(SCC(=O)Nc2ccc(F)c(F)c2)[nH]c2ccccc2c1=O	·	0.92
111	CCOc1ccccc1C1CC(=O)Nc2c1c(C)nn2-c1ccc2nnc(C)n2n1 (centres undefined)	·	1.23
112	CCN(CC)c1ccc2nnc(CCC(=O)N3CCCCC3)n2n1	·	-0.02

Record cards, as listed above. Screens in order: CDC25B CDK2 inh | HIV TAR-Tat
`CCN(CC)c1ccc2nnc(CCC(=O)N3CCCCC3)n2n1` is listed as · | -0.02
`COC(=O)c1c(SCC(=O)Nc2ccc(F)c(F)c2)[nH]c2ccccc2c1=O` is listed as · | 0.92
`Cc1ccc(N(CC(=O)NC(C(C)C)C(C)C)S(C)(=O)=O)cc1Cl` is listed as -1.52 | ·
